# Screens from PubChem.
# KCNQ2 block: KCNQ2 potassium channel inhibitors, primary screen, cell-based, CHO-K1, FluxOR thallium flux, B-score (AID 2156). 20 min; active compounds read low; only compounds with negative scores are shown here; some inactives read as strong as hits. 310,000 tested, 1.1% active. O88943. B-score at 10 µM;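 active = fluorescence ratio B-score at most minus 3 library SDs, with starting brightness B-score within 2 library SDs, cut at about -5.5 in these data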
# Target sequence (O88943 whole entry, looked up): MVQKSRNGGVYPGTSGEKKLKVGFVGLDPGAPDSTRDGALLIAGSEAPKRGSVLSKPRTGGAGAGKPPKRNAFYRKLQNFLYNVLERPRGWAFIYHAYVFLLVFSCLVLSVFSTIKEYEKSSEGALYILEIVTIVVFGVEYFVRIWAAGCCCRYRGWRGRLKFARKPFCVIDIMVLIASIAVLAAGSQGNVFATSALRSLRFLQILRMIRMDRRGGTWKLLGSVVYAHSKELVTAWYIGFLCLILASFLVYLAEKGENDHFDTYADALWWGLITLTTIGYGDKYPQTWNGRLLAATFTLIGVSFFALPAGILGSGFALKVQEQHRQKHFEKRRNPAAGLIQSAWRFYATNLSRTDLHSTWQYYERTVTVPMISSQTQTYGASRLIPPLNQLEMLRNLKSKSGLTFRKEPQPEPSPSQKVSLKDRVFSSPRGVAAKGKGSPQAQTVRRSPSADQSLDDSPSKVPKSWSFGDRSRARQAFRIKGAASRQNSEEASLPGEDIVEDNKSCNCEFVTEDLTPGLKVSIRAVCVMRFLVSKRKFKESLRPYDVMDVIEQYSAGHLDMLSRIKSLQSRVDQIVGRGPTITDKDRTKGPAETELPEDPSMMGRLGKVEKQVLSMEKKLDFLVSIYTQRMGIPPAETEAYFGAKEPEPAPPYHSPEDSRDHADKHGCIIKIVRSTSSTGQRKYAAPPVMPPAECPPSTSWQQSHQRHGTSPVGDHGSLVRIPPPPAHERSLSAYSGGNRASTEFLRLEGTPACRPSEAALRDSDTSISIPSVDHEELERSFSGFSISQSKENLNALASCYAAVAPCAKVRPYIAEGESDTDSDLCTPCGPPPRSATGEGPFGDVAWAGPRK
# KCNQ2 block baseline: second read-out of KCNQ2 block, no call of its own (marks repeat the call); B-score; measured here: initial fluorescence intensity artifact check;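 brightness before thallium and not channel activity; 0 = typical well and far values either way flag optical interference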
# * hit, by the source's call; i = inactive.
KCNQ2 block | KCNQ2 block baseline | molecule
i | 1.58 | Cn1c(=O)oc2cc(S(=O)(=O)Nc3cccc(C(=O)O)c3)ccc21
i | -0.67 | O=C(O)CCCC(=O)N1CCN(c2nc(-c3ccccc3Cl)c3cc(Br)ccc3n2)CC1
i | -0.59 | Cc1cccc(OCC(=O)N/N=C/c2sc(=O)n(Cc3cccc(C(=O)O)c3)c2Cl)c1
i | 0.21 | O=C(COc1coc(CN2CCN(c3ccccc3F)CC2)cc1=O)NCC1CCCO1 (stereo not given)
i | 1.5 | O=S(=O)(c1ccccc1)N1CCCC1c1cccs1 (stereo not given)
i | -0.01 | O=C(CN1C(=O)c2ccccc2C1=O)NCc1ccc(F)cc1
i | -0.02 | Cc1ccc(C)c(N(C(=O)Cn2nnc(-c3cccs3)n2)C(C(=O)NC2CC2)c2ccc(C)o2)c1 (stereo not given)
i | 0.12 | Cn1ncc(Br)c1C(=O)NC(=S)N1CCN(c2ccccn2)CC1
i | -0.65 | CCc1ccc(NC(=O)c2ccc(Cn3cc([N+](=O)[O-])cn3)cc2)cc1
i | -1.15 | COc1ccc(-c2nnnn2-c2ccccc2OC)cc1
i | 0.15 | C/C(=N\NC(=O)c1nnn(-c2nonc2N)c1CN1CCc2ccccc21)c1ccccc1O
i | -0.24 | Cc1cnc(C(=O)OCC(=O)Nc2ccc(Cl)cc2)cn1
i | 1.86 | O=c1oc2ccccc2c(NCCc2ccccc2)c1[N+](=O)[O-]
i | -0.75 | O=C1Nc2ccccc2O/C1=C\c1c(F)cccc1Cl
i | 0.41 | Cc1cccc(-n2c(Cc3ccccc3)nnc2SCc2ccc([N+](=O)[O-])cc2)c1
i | 2.21 | O=C(NN1C(=O)c2ccccc2NC1c1ccccn1)c1ccc(Br)cc1 (stereo not given)
i | -1.8 | COC(=O)c1cc(S(=O)(=O)N2CCN(c3cccc(OC)c3)CC2)cn1C
i | 1.25 | Cc1ccccc1N=Nc1c(C)[nH]n(C(N)=S)c1=O
i | -1.16 | CC(C)(C)c1ccc(C(=O)NCc2nnc(SCC(=O)NC3CCCCC3)o2)cc1
i | -1.46 | CCC(=O)Nc1nc(-c2ccccc2)ns1
i | 0.69 | Cc1ccc(/C=C/C(=O)NCCCc2ccccc2)cc1
i | 0.32 | O=C(c1ccc(F)cc1F)N1CCCN(c2nc(-c3ccccc3)ns2)CC1
i | 1.59 | COC(=O)c1sc(NC(=O)c2csc3c2CCCC3)nc1C
i | 0.1 | COc1ccc(C(=O)N[C@H](C(=O)OCc2cc(=O)oc3cc(C)ccc23)C(C)C)cc1
i | -0.03 | Cc1cccc(-c2ncc(CN3CCN(C4CCCC4)C(CCO)C3)cn2)c1 (stereo not given)
i | -0.48 | CC(C)c1ccc(Nc2nnc(SCC(=O)Nc3ncc(S(=O)(=O)c4ccc([N+](=O)[O-])cc4)s3)s2)cc1
i | -1.49 | Cc1ccc(C)c(NC(=O)c2ccc3c(c2)N(Cc2ccc(F)cc2)C(=O)CS3=O)c1 (stereo not given)
i | 0.53 | COc1ccc(/C=C(/NC(=O)c2ccc(OC)c(OC)c2)C(=O)NCCCn2ccnc2)cc1
i | -0.28 | NC(=O)C1(N2CCCCC2)CCN(C2CC(=O)NC2=O)CC1 (stereo not given)
i | -0.22 | CCOC(=O)C1=C(C)OC(N)=C(C#N)C1c1cc(OC)c2c(c1)OCO2 (stereo not given)
i | 2.47 | Cc1ccc(C(=O)NC2CCN(Cc3ccccc3)CC2)cc1S(=O)(=O)N1CCOCC1
i | -0.5 | Cc1c(Cl)cccc1NC(=S)N(C)CCC#N
i | -1.51 | CC(=O)Nc1ccc2nc(NC(=O)COc3ccccc3C)sc2c1
i | -1.21 | CCCC(=O)N1CCc2cc(-c3nc(N)sc3C)ccc21
i | -0.66 | CCOC(=O)/C(C#N)=C/C=C1/C=CC=CN1C
i | 0.62 | CCCCCNC(=O)c1ccc2c(=O)n(CCCN3CCCC3=O)c(=S)[nH]c2c1
i | -1.87 | COc1ccc(-c2ccc(C(C)=O)cc2)cc1[C@H]1[C@H]2C=CC[C@@H](C)[C@@H]2C(=O)N1Cc1ccccc1
i | 1.56 | O=C(CSc1nnc(CNC(=O)c2cccs2)o1)Nc1ccccc1F
i | 1.61 | N/C(=N\OC(=O)c1ccc(Cl)cc1)c1[nH]ncc1Br
i | 0.18 | O=C(NCCN1C(=O)S/C(=C\c2ccccc2F)C1=O)C1CCCN1C(=O)c1cccs1 (stereo not given)

# Overlap with the part before: six compounds; new compounds follow.
KCNQ2 block | KCNQ2 block baseline | molecule
i | -0.66 | CCOC(=O)/C(C#N)=C/C=C1/C=CC=CN1C
i | 0.62 | CCCCCNC(=O)c1ccc2c(=O)n(CCCN3CCCC3=O)c(=S)[nH]c2c1
i | -1.87 | COc1ccc(-c2ccc(C(C)=O)cc2)cc1[C@H]1[C@H]2C=CC[C@@H](C)[C@@H]2C(=O)N1Cc1ccccc1
i | 1.56 | O=C(CSc1nnc(CNC(=O)c2cccs2)o1)Nc1ccccc1F
i | 1.61 | N/C(=N\OC(=O)c1ccc(Cl)cc1)c1[nH]ncc1Br
i | 0.18 | O=C(NCCN1C(=O)S/C(=C\c2ccccc2F)C1=O)C1CCCN1C(=O)c1cccs1 (stereo not given)
i | 1.24 | Cc1cc2ncc(Cl)nc2cc1C
i | -0.05 | Cc1csc(NC(=O)CSc2ccc(-c3ccccn3)nn2)n1
-6.65* | -1.17* | O=C1Nc2cc(C(=O)N3CCC(N4CCCCC4)CC3)ccc2S/C1=C\c1ccccc1
i | 2.25 | S=C(Nc1ccc(Cl)cc1)N1CCN(Cc2ccccc2)CC1
i | -1.24 | c1ccc(CN2CCN(c3nc4ccccc4s3)CC2)cc1
i | -0.01 | O=C(CCS(=O)(=O)c1ccccc1Cl)NCc1ccc(F)cc1
i | -0.64 | CC(=O)Nc1ccc(S(=O)(=O)N[C@H](C(=O)O)C(C)C)cc1
i | 0.32 | COc1cc(OC)cc(C(=O)N/N=C2/SCC(=O)N2Cc2ccco2)c1
i | -1.05 | COC(=O)c1sc(-c2ccccc2)cc1NC(=O)c1cc(OC)cc(OC)c1
i | -0.58 | Fc1cccc(/C=N/Nc2nncc3ccccc23)c1
i | -1.01 | COc1ccc(S(=O)(=O)N2CCCC2CNC(=O)C(=O)NC2CCCCCC2)cc1 (stereo not given)
i | 0.19 | O=C(NCc1cccs1)C1CCN(c2ccc(S(=O)(=O)N3CCOCC3)cc2Cl)CC1
i | -0.82 | Cn1c(=O)c2c(nc(CN3CCc4ccccc4C3)n2Cc2ccc(Cl)cc2)n(C)c1=O
i | 2.5 | CN(c1ccccc1)S(=O)(=O)c1ccc(Cl)c(C(=O)NC2=NCCS2)c1
i | -0.75 | CCN1CCN(C(=O)c2ccc3c(=O)n(C4CCCC4)c(=S)[nH]c3c2)CC1
i | 0.71 | COC(=O)c1c(N2C(=O)CC(Sc3ccccc3C(=O)O)C2=O)sc(C)c1C (stereo not given)
i | 1.95 | Cn1c(NNC(=O)c2cccc3ccccc23)cc(=O)n(C)c1=O
i | 4.07 | COCC(=O)N(Cc1cc2ccccc2[nH]c1=O)c1ccc(OC)cc1
i | 2.31 | O=C(c1cccc(S(=O)(=O)N2CCc3ccccc3C2)c1)N1CCN(c2ccc(O)cc2)CC1
i | 0.88 | COc1ccc(NC(=O)c2cc(-c3cc(C)c(C)cc3O)n[nH]2)c(OC)c1

# Record cards, from the list above. Screens in order: KCNQ2 block, KCNQ2 block baseline
# c1ccc(CN2CCN(c3nc4ccccc4s3)CC2)cc1 is listed with i, -1.24
# CC(=O)Nc1ccc(S(=O)(=O)N[C@H](C(=O)O)C(C)C)cc1 is listed with i, -0.64
# O=C(CCS(=O)(=O)c1ccccc1Cl)NCc1ccc(F)cc1 is listed with i, -0.01
# COc1ccc(NC(=O)c2cc(-c3cc(C)c(C)cc3O)n[nH]2)c(OC)c1 is listed with i, 0.88
# Cc1cc2ncc(Cl)nc2cc1C is listed with i, 1.24

# Remaining list, next part:
KCNQ2 block | KCNQ2 block baseline | molecule
i | -0.35 | COc1ccc(COC(=O)C2CCN(S(=O)(=O)c3ccc(F)cc3)CC2)cc1
i | -0.79 | NC(=O)C(c1ccccc1)c1ccc(C(=O)c2ccccc2)cc1 (stereo not given)
i | -0.03 | Cc1cc(Sc2nnc(/N=C/N(C)C)s2)c2ccccc2n1
i | -1.4 | O=C(c1ccccc1Cl)N(Cc1ccc(Br)cc1)N1C(=O)CCC1=O
i | 0.42 | Cc1cc2occ(CC(=O)Nc3nccs3)c2cc1C(C)C
i | 1.28 | COC(=O)c1ccc(C23CC4(C2)[C@H](CN(C)[C@@H]4c2ccccc2)C3c2ccccc2)cc1 (stereo not given in full)
i | -0.52 | COc1ccc(OCC(=O)N/N=C2\CCCCc3ccccc32)cc1
i | -1.73 | Cc1[nH]nc(N=CC2=C(O)CC(c3ccco3)CC2=O)c1-c1ccccc1 (stereo not given)
i | 0.13 | O=C(NCc1ccccn1)c1ccc(=O)oc1
i | -0.43 | COc1ccc(-c2noc(CNS(=O)(=O)c3ccccc3)n2)cc1
i | 0.64 | CN(C)S(=O)(=O)c1ccc(N2CCCC2)c(C(=O)NNC(=O)COc2ccccc2Cl)c1
i | -0.05 | COc1ccc(Cl)cc1C(=O)Nc1ccc(NC(=O)c2ccco2)cc1
i | -0.35 | Cc1ccc(C)c(N(C(=O)c2ccco2)C(C(=O)NC2CCCC2)c2ccco2)c1 (stereo not given)
i | -0.63 | CCc1cccc(CC)c1-n1c(SCn2nnc3ccccc3c2=O)nnc1-c1cccnc1
i | -0.25 | O=C(CN1C(=O)COc2ccccc21)N(Cc1cccnc1)Cc1cccc(F)c1
i | -2.2 | Cc1ccc2c(c1)-c1ccccc1S(=O)(=O)N2
i | 2.29 | CC(=O)NCc1ccc(S(=O)(=O)NC(C)CCc2ccccc2)cc1 (stereo not given)
i | 0.93 | CCOC(=O)c1c(C)[nH]c(C(=O)COC(=O)CCSc2ccccc2)c1C
i | 1.51 | COC(=O)N(C)c1nc2ccccc2s1
i | 0.09 | O=C(COc1ncnc2cc([N+](=O)[O-])ccc12)NCCc1ccc(Cl)cc1
i | -0.8 | Fc1ccc(Nc2ccnc(C(F)(F)F)c2)cc1
i | -0.57 | COc1cccc(SCc2noc(C(=O)NC(C)C)c2C(=O)NC(C)C)c1
i | 1.09 | COc1ccc(Oc2nc(-c3cccnc3)nc3ccccc23)cc1
i | -0.38 | COc1ccc(C(=O)NC(=S)NC(C)C)cc1Br
i | 0.58 | Cn1c(CC(=O)Nc2ccccc2)nnc1SCC(=O)NC1CCCC1
i | 1.74 | COc1cc(C(=O)N/C(=C/c2ccc(F)cc2)C(=O)NC(C(=O)O)c2ccccc2)cc(OC)c1OC (stereo not given)
i | -0.45 | CCN1CCN(CC(=O)Nc2ccc(C)c(Br)c2)CC1
i | 0.1 | OC(c1ccccn1)(c1ccccn1)c1ccccn1
i | 0.03 | C=C(C)C1CC=C(C)/C(=N/NC(=O)COc2ccc(Cl)cc2)C1 (stereo not given)
i | -0.01 | Cc1c(C)c(C)c2[nH]c(=S)[nH]c2c1C
i | -1.19 | CCc1ccc(NC(=O)c2ccc(NC3=NC4CS(=O)(=O)CC4S3)cc2)cc1 (stereo not given)
i | 1.25 | COC(=O)c1c(NC(=O)CN2CCC3(O)CCCCC3C2c2cc(OC)ccc2OC)sc(C)c1C (stereo not given)
i | 0.8 | O=C(CN1C(=O)c2ccccc2S1(=O)=O)Nc1ccccc1C(=O)NCc1ccco1
i | -1.03 | CCCOc1ccc(/C=C/c2c([N+](=O)[O-])c(=O)n(C)c(=O)n2C)cc1
i | 0.25 | Cn1cc(CC(=O)N2CCN(c3ccc(Cl)cc3)CC2)c2ccccc21
i | -0.46 | Cc1ccc(C(=O)O)cc1NC(=O)c1cccs1
i | -1.16 | O=c1nc2n(c3cc(Cl)c(S(=O)(=O)N4CCOCC4)cc13)CCCCC2
i | 0.58 | CC(C)C(=O)Nc1ccc(C(=O)NC2CCSC2=O)cc1 (stereo not given)
i | -2.93 | COc1ccc(C(=O)NCCCOc2cccc(NC(C)=O)c2)cc1
i | 0.05 | S=C(N/N=C/c1ccc(Cl)cc1)N1CCOCC1
i | -0.02 | O=C(Nc1ncc2c(n1)-c1ccccc1OC2)c1ccc(Cl)cc1Cl
i | 0.97 | CC(C)n1c(SCC(=O)Nc2ccc3c(c2)OCO3)nc2c1c(=O)n(C)c(=O)n2C
i | -0.2 | COC(C(=O)Nc1ccc(S(=O)(=O)Nc2ccc(C)c(C)c2)cc1)c1ccccc1 (stereo not given)
i | 2.52 | CC1CCN(C(=O)CN(c2cccc(F)c2)S(C)(=O)=O)CC1
i | 0.06 | CCCc1ncc(C(=O)c2ccc(OC)cc2)n1C
i | -1.54 | O=[N+]([O-])c1ccc(S(=O)(=O)CC(CN2CCCCC2)N2CCCCC2)cc1 (stereo not given)
i | -0.81 | O=C(NCc1ccncc1)C(=O)NCC1OCCN1S(=O)(=O)c1ccc(Br)cc1 (stereo not given)
i | 0.45 | N=c1c(C(=O)NC2CCCCC2)cc2c(=O)n3ccccc3nc2n1Cc1cccnc1
i | 0.02 | CCc1nnc(NC(=O)c2ccc(S(=O)(=O)NC3CCCCC3)cc2)s1
i | -1.17 | COc1ccc(Br)cc1CN(C)C(C)C(=O)Nc1cccc(C(C)=O)c1 (stereo not given)
i | -0.05 | COc1ccc(C(=O)CSc2nnc(-c3ccco3)n2CC2CCCO2)cc1 (stereo not given)
i | -2.84 | CCn1c2ccc(F)cc2c2nnc(NN)nc21
i | 1.63 | O=c1cc(CS(=O)(=O)c2ccccc2)nc(-c2ccncc2)[nH]1
i | -1.64 | CCC(c1c(C)n(C)n(-c2ccccc2)c1=O)c1c(C)n(C)n(-c2ccccc2)c1=O
i | -0.35 | O=C(c1cc2nc(-c3ccco3)cc(C(F)(F)F)n2n1)N1CCCCCC1
i | -1.32 | Cc1cc(C(F)(F)F)nn1CC(=O)NNC(=S)Nc1cccc(Cl)c1
i | -0.86 | CN(CC(=O)NCCCN1CCOCC1)S(=O)(=O)c1cc(Cl)ccc1Cl
i | 0.17 | CC(C)(C)CC(=O)NC(=S)N1CCCCCC1
i | 1.09 | COc1ccc(NC(=O)CSc2nnc(C)n2Cc2ccccc2)cc1
i | -0.94 | CC(C)(O)C#Cc1ccc(C(=O)NCc2cccs2)s1
i | 0.1 | Nc1ccccc1C(=O)NNc1c2ccccc2nc2ccccc12

# A portion of the library; rates above refer to the full screens.
